Bioassay records deposited in PubChem BioAssay by National Center for Advancing Translational Sciences (NCATS).
HPGD block: blocks human HPGD enzyme activity; P15428; purified HPGD, NADH fluorescence kinetic, PGE2 substrate; Potency, µM, inactives show at the top dose activity change, negative = inhibition, usual class: inhibitors; 150,000 tested, 4.3% active; AID 894; active = well fitted inhibition curve with a large enough effect (not every such curve was filed as active); inconclusive = small, poorly fitted or top-dose-only effect, or another doubt; inactive = no such curve, though single readings can be large or run the other way;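 also: top concentration of the series not given in the record; plate controls included wells without enzyme; inactives centre near -10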
Target sequence (P15428 whole entry, looked up): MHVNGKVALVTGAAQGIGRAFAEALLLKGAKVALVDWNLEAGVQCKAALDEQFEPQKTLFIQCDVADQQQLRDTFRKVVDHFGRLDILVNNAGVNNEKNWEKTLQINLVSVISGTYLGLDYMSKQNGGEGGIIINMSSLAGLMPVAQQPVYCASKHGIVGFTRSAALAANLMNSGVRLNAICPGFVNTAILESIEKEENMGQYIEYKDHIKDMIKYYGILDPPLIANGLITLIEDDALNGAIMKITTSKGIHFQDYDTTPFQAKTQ
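20 nM HPGD preincubated 15 min at room temperature with compound in 50 mM Tris-HCl pH 8, 0.01% Tween 20. Started with 1 mM NAD+ and 30 uM prostaglandin E2; NADH fluorescence (360/450 nm) read 5 times over 30-s intervals, last minus first.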
* hit, by the source's call; ? = inconclusive; & = joins results of further samples. % is scaled to controls: 0 for no effect and ±100 for the full control effect; potency is read from the fitted curve at half-maximal effect. Some of the compounds tested; count on the stated rates, not on these rows.

SMILES,HPGD block
O=C(CSCSCC(=O)NCC1CCCO1)NCC1CCCO1 (configuration not stated),-9.1%
CCCCNCCCOc1cccc(Cl)c1,-9.0%
COc1cc(Br)c(C(C)NC(=O)c2ccccc2)cc1OC (configuration not stated),-5.1%
C/C(CCN1CCCCc2nc(C)c(C)cc21)=N\OC[C@@H](O)[C@H]1O[C@@H]2OC(C)(C)O[C@@H]2[C@H]1O,-21.9%
O=C(CN1C(=O)CCSc2ccccc21)Nc1ccccc1,-5.0%
CCNc1nc(NCC)nc(OCCNS(=O)(=O)c2cc(C)ccc2C)n1,-6.4%
COCCCn1c2nc3ccccc3nc2c2c(=O)n(-c3ccccc3OC)cnc21,-19.5%
CCCc1cc(=O)n2[nH]c(C)nc2n1,-9.6%
CCN(CC)S(=O)(=O)c1ccc(NC(=O)c2ccccc2N(C)S(C)(=O)=O)cc1,-6.6%
CN1CCN(c2ccc(S(=O)(=O)N3CCCCC3)cn2)CC1,-2.1%
CCCCn1c(SCC(=O)N2CC(=O)Nc3ccccc32)nnc1-c1ccoc1C,-6.6%
COc1cccc(Oc2cn[nH]c2-c2ccc(O)cc2O)c1,-22.0%
Cc1cccc(C)c1NC(=S)NCCCN1CCCC1=O,1.2%
O=C(NCc1ccccc1)c1sc(=S)n2c1[nH]c(=O)c1ccccc12,?
CCCNC(=O)c1ccccc1NC(=O)CSCc1ccc(OC)cc1,-5.3%
CCOC(=O)c1[nH]c2c(c1C)C(=O)CC(c1ccc(F)cc1)C2 (configuration not stated),-4.2%
Cc1ccc(C2C(C#N)=C(N)Oc3n[nH]c(-c4ccccc4)c32)o1 (configuration not stated),-25.1%
Cc1nn(-c2ccccc2)c2[nH]c(=O)c(CNCCN3CCOCC3)cc12,-19.7%
O=C(COC(=O)Cc1ccsc1)NCc1ccccc1,-4.4%
S=c1[nH]ncn1/N=C/c1ccccn1,-1.6%
COc1ccc(C(=O)NCCCCCC(=O)O)cc1OC,3.6%
O=S(NCc1ccco1)C12CC3CC(CC(C3)C1)C2 (configuration not stated),?
CCc1ccc(NS(=O)(=O)c2cc(OC)ccc2OC)cc1,-1.3%
Cc1ccc(NC(=S)C2=C(O)c3ccccc3N(C)S2(=O)=O)cc1,-20.1%
O=C(NCC(=O)N(CC1CCCO1)C(C(=O)NC1CCCCC1)c1ccc(F)cc1)c1ccco1 (configuration not stated),-5.1%

Some values from above.
HPGD block with O=C(NCC(=O)N(CC1CCCO1)C(C(=O)NC1CCCCC1)c1ccc(F)cc1)c1ccco1 (configuration not stated) : -5.1%
HPGD block with CCOC(=O)c1[nH]c2c(c1C)C(=O)CC(c1ccc(F)cc1)C2 (configuration not stated) : -4.2%
HPGD block with CCc1ccc(NS(=O)(=O)c2cc(OC)ccc2OC)cc1 : -1.3%

The listing picks up, starting 6 compounds before the break.
SMILES,HPGD block
S=c1[nH]ncn1/N=C/c1ccccn1,-1.6%
COc1ccc(C(=O)NCCCCCC(=O)O)cc1OC,3.6%
O=S(NCc1ccco1)C12CC3CC(CC(C3)C1)C2 (configuration not stated),?
CCc1ccc(NS(=O)(=O)c2cc(OC)ccc2OC)cc1,-1.3%
Cc1ccc(NC(=S)C2=C(O)c3ccccc3N(C)S2(=O)=O)cc1,-20.1%
O=C(NCC(=O)N(CC1CCCO1)C(C(=O)NC1CCCCC1)c1ccc(F)cc1)c1ccco1 (configuration not stated),-5.1%
Cc1cs/c(=N\N=C\c2cccc([N+](=O)[O-])c2)n1Cc1ccco1,-5.2%
N#C[C@H]1[C@H](c2ccccc2)[C@](C#N)(C(=O)c2ccccc2)[C@@H]2C=Cc3ccccc3N21,?
O=C(CN1CCOCC1)Nc1ccccc1,-10.4%
COc1ccccc1CNC(=O)CCCn1c(=O)c2ccccc2n(CC(=O)NC2CCCC2)c1=O,-5.6%
COc1ccc(-c2nc(CSCC(=O)N3CCc4ccccc43)c(C)o2)cc1OC,-9.0%
C/C(=N\NC(=O)c1ccc(C)cc1C)c1ccc2c(c1)Nc1ccccc1S2,-8.1%
Cn1cc(C(=O)c2ccc(Cl)cc2Cl)cc1C(=O)O,-13.0%
CCn1nc(CC(=O)Nc2nnc(CC(=O)N3CCCC3)s2)c2ccccc2c1=O,-17.2%
CC1CCCCC1NC(=O)CSc1nc2ccccc2c(=O)n1Cc1ccco1 (configuration not stated),-3.1%
COc1ccc(-n2c(SCC(=O)NCc3cccs3)nnc2-c2ccoc2C)cc1,-13.5%
Cc1c(C(=O)NC2CCCCC2)sc2nc3ccc(N)cc3n12,-13.9%
CC(C)c1ccc(NC(=O)C(=O)c2cn(CC(=O)N3CCCCC3)c3ccccc23)cc1,-18.0%
COCc1nnc(NC(=O)CSCc2ccccc2)s1,?
CCC(=O)N1CC(C)C(=O)Nc2ccccc21 (configuration not stated),-4.1%
CCCOC(=O)c1cccc(NC(=O)c2cccnc2)c1,-6.0%
CCOC(=O)C[n+]1c(C)ccc2c1CCC2,-8.8%
CCOC(=O)c1c(NS(C)(=O)=O)sc2c1CCC(C)C2 (configuration not stated),-7.4%
O=C1C(Cl)=C(NC2CCc3ccccc32)C(=O)c2ncccc21 (configuration not stated),-9.1%
COc1cccc(NC(=O)C(Sc2nnc(Nc3ccccc3C)s2)c2ccccc2)c1 (configuration not stated),-10.1%
Cn1c(=O)cc(OCC(=O)NCCCN2CCN(c3cccc(Cl)c3)CC2)c2ccccc21,-7.2%
CCc1ccc(NC(=O)C2C3/C=C\CCCCC32)cc1 (configuration not stated),-12.8%
Cc1ccc(/C=C/C(=O)OC(C)C(=O)Nc2ncc(Cl)cc2Cl)o1 (configuration not stated),-6.9%
O=c1cc(-c2ccncc2)oc2ccccc12,-14.4%
O=C(Nc1ccc(Cl)cc1)Nc1nnc(CSc2ccc(Cl)cc2)s1,1.3%
Cc1onc(-c2ccccc2Cl)c1C(=O)N1C=CC(C(F)(F)Cl)=NCC1,-13.1%
Brc1ccc(/C=N/c2nc3ccccc3n2CCN2CCOCC2)cc1,-10.4%
COc1ccc2c(c1)c1ncn(Cc3ccco3)c(=O)c1n2C,?
CCCCn1nnnc1NCc1cc(OC)c(OC)c(OC)c1,-4.2%
N#CCC(=O)NC(=O)NCC1CC1,-19.4%&-8.3%
O=S(=O)(Nc1nc2ccccc2[nH]1)c1ccc2ccccc2c1,-7.4%
Cc1cc(C)c(NC(=O)C2CC(=O)N(c3ccc4c(c3)OCCO4)C2)c(C)c1 (configuration not stated),-15.9%
COc1cc(OC)cc(C(=O)NCC(=O)N2CCCCC2)c1,-12.0%
CC(O)CNCc1cccc2ccccc12 (configuration not stated),-6.9%
Cc1cc(C(=O)CSCCCn2c(=O)[nH]c3ccccc32)c(C)n1C,-10.8%
O=C(C1CC1)N1CCc2cc(S(=O)(=O)NC3CCN(Cc4ccccc4)CC3)ccc21,-4.0%
O=C(Nc1ccccc1)C1CCCCC1,25.1µM*
CCn1c(-c2ccc(N(C)C)cc2)nc2ccccc21,?
CCOc1ccc(C2N(c3ccc(F)cc3)C(=O)C3CCCN32)cc1 (configuration not stated),-17.9%
COc1ccc(S(=O)(=O)N2CCC(C(=O)NCCC3=CCCCC3)CC2)cc1C,-3.0%
CCn1c(SCC(=O)N/N=C/C=C\c2ccccc2[N+](=O)[O-])nc2ccccc21,-13.4%
N#C/C(=C/c1ccc(CNS(=O)(=O)c2ccccc2)o1)C(N)=O,-27.2%
Cc1nn2c(COc3ccc(NC(=O)c4ccccc4Cl)cc3)nnc2c2ccccc12,14.1µM*
CSc1cccc(NC(=O)CN(c2ccc(C)cc2C)S(C)(=O)=O)c1,-8.6%
Cc1cc(C)c(C#N)c(SCC2COc3ccccc3O2)n1 (configuration not stated),14.1µM*
CC(=O)c1c(C)nc2nonc2c1N,?
CCOc1ccc(S(=O)(=O)N2CCN(C(=O)c3cc4c(s3)CCCC4)CC2)cc1,-3.8%
CC(=O)c1c(C)nc(-c2ccccc2)nc1NC(=O)C(C)C,-6.6%
COc1cccc(-c2cc(C(=O)N3CCCCCC3)no2)c1,2.51µM*
O=C(COC(=O)Cc1ccc(Cl)cc1)Nc1ccc(OC(F)F)cc1,-9.9%
CCCn1c(Cc2ccccc2)n[nH]c1=S,3.4%

(next part)
structure,HPGD block
COc1cc(NC(=S)NCc2ccco2)cc(OC)c1,?
CCCn1c(SCC(=O)NCc2ccco2)nnc1C(C)C,-12.6%
COC(=O)CCC(=O)Nc1cccc(Cl)c1,-6.5%
Cc1ccsc1C(=O)OCc1nc2ccccc2c(=O)[nH]1,-18.6%
COc1ccccc1NC(=O)CN1CCC(n2c(C)nc3cc(F)ccc32)CC1,-8.9%
COc1ccccc1NC(=O)CC1C(=O)NCCN1C(=O)Nc1ccc(Cl)c(Cl)c1 (configuration not stated),-14.0%
Cc1ccc(C(=O)NCCc2nnc3ccc(SCC(=O)Nc4ccccc4C)nn23)cc1,-21.1%
CCN(CC)S(=O)(=O)c1cccc(NC(=O)/C=C/c2ccc([N+](=O)[O-])cc2)c1,-4.1%
CCn1c(/C=N/Nc2ccc(C(=O)O)cc2)nc2ccccc21,?
Cc1cn(C2OC[C@@H](O)[C@@H]2CO)c(=O)[nH]c1=O (some centres not stated),-7.6%
CC(=O)NC12CC3CC(C1)CC(C(=O)OCC(=O)Nc1ncc(Cl)c(C)c1Cl)(C3)C2,-4.6%
COc1ccc(NC(C)C(=O)Nc2ccc(C(C)(C)C)cc2)cc1Cl (configuration not stated),-10.4%
CCOc1ccc(NC(=O)C(=O)NCCCn2ccnc2)cc1,-10.9%
C/C(CCC(=O)OC[C@H]1O[C@H](C#Cc2ccccc2)C=C[C@@H]1Oc1ccc(C)cc1)=N\OC[C@@H](O)[C@H]1O[C@@H]2OC(C)(C)O[C@@H]2[C@H]1O,-19.5%
O=c1c2[nH]c3ccccc3c2ncn1CCCn1ccnc1,-20.4%
Cc1csc2nc(CSc3nc4ccccc4o3)cn12,-21.7%
CCOc1ccc(/C(=N\O)C(C)NO)cc1 (configuration not stated),-7.5%
CCOC(=O)N1CCN(c2ncnc3c2[nH]c2ccc(F)cc23)CC1,-20.8%
CSc1nnc(-c2sc(-c3ccccc3)nc2C)n1C,?
CC(C)CCn1c(=O)c2ccccc2n2c(CN3C(=O)NC4(CCC(C)CC4)C3=O)nnc12 (configuration not stated),-17.6%
COC(=O)c1[nH]c2ccccc2c1NC(=O)CN1CCN(C(=O)c2ccco2)CC1,-19.2%
Cc1ccc(O)c(NC(=O)C2CC(c3c(F)cccc3Cl)=NO2)c1 (configuration not stated),?
Nc1ccc2c(c1)C/C(=C/c1ccco1)C2=O,?
CCOC(=O)c1cnc(=O)[nH]c1C,-3.7%
O=C(Nc1cccc2c1CCCC2)c1cc([N+](=O)[O-])ccc1Cl,-6.8%
CCCCc1nc2sc3c(SCC(=O)NCc4ccco4)ncnc3c2c2c1CCC2,-12.8%
CCOC(=O)C1C2C=CC3(CN(c4ccc(Cl)c(F)c4)C(=O)C13)O2 (configuration not stated),-15.2%
Nc1ccc(C23CC4CC(CC(CO)(C4)C2)C3)cc1,-8.6%
CCC(CC)C(=O)NCCc1cc2c(OC)ccc(OC)c2[nH]c1=O,-5.5%
COc1cc(/C=C2\SC(=Nc3ccc(N4CCOCC4)cc3)N(C)C2=O)ccc1OC(C)C(=O)O (configuration not stated),-26.0%
Cc1ccccc1Nc1nc(N)nc(CSc2nnnn2-c2ccccc2)n1,-14.2%
Cc1ccc2nc(N3CCN(Cc4ccc(F)cc4)C3=O)c(C)cc2c1,-9.9%
C=CCCC(=O)Nc1nc(C)c(-c2csc(Nc3ccccc3OC)n2)s1,-19.2%
CCOC(=O)C[n+]1c(C)csc1C,1.8%
O=C1NC2=C(C(=O)CCC2)C(c2ccc3ncccc3c2)N1 (configuration not stated),-3.2%
Cn1c2ccc(Cl)cc2c2nc3ccccc3nc21,-19.8%
O=C(c1ccccc1)c1c[nH]c(C(=O)NCCCN2CCOCC2)c1,-13.8%
COc1ccccc1C(=O)N1CCN(C2CCN(Cc3ccccc3)CC2)CC1,3.0%
COc1ccc(CN(Cc2cccnc2)S(=O)(=O)c2ccc(-n3cnnn3)c(C)c2)cc1OC,-2.8%
Cc1ccc(C)c(OCC(=O)Nc2nonc2NC(=O)COc2cc(C)ccc2C)c1,-14.9%
O=C1c2ccccc2C(Nc2ccc3c(c2)OCCO3)N1Cc1ccccc1 (configuration not stated),-14.6%
C(=N\N1CCN(C2c3ccccc3-c3ccccc32)CC1)/c1ccncc1,-3.5%
O=[N+]([O-])c1ccccc1NCCNc1ncc(C(F)(F)F)cc1Cl,-16.4%
COc1ccccc1N1CCN(C(=O)c2ccc(S(=O)(=O)N3CCCCC3)cc2)CC1,-4.4%
CC(C(=O)Nc1sc2c(c1C(=O)NCc1ccco1)CCCC2)N1C(=O)c2ccccc2C1=O (configuration not stated),-9.4%
COc1ccc(NC(=O)NCc2ccccn2)cc1OC,-23.3%
CCCC(=O)Nc1cccc(-c2nc3cc(C)c(C)cc3o2)c1,?
O=C(Nc1cc2c(oc1=O)CCCC2=O)c1ccc(Cl)cc1,-11.3%
O=C(Nc1nccc(-c2cccs2)n1)c1ccccc1Cl,-18.1%
COc1ccc(Cl)c(NC(=O)Nc2c(C)n(-c3ccccc3)c(=O)n2C)c1,-9.8%
CSC(=S)N(C)C1CCS(=O)(=O)C1 (configuration not stated),4.2%
CCc1cc2c(=O)[nH]c(N3CCOCC3)nc2s1,-20.6%
CCCCNS(=O)(=O)c1ccc2nc(-c3cccs3)cc(C(=O)NCC(OC)OC)c2c1,?
Cc1cc(Br)ccc1OCCCCNCCO,-2.7%
CCN(CC)c1ccc(NC(=O)Nc2ccccc2C(F)(F)F)cc1,-8.1%
CN(C)CCNc1nc2c(c(=O)[nH]c(=O)n2C)n1CC(O)COc1ccc(Cl)cc1 (configuration not stated),-8.3%
